High-throughput results (PubChem BioAssay)
rRNA inh HTS: selective bacterial rRNA inhibition in E. coli | E. coli WT GFP vs humanized-ribosome RFP mutants, fluorescence, 24 h; active compounds read low; DMSO median 0, no signal -100 | GFP signal change (wild-type ribosome), % (concentration not given with the values) | 350,000 compounds, 1.6% hits | AID 720706;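 active = significant combined selectivity score with lowered wild-type GFP, culture density cut under 30%, mutant RFP and density less affected; inactive = any of these conditions unmet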; also: one replicate is shown; some compounds called inactive have numbers as strong as hits
FGF22 binding: binders of recombinant human FGF22 by thermal shift | Q9HCT0 | SYPRO orange fluorescence; percent of sucrose octasulfate shift, DMSO zero | calls only at 9.99 µM | 340,000 compounds, 1.5% hits;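 active = melting point raised past a set limit in the mean and every replicate; inconclusive = no clear call; three in four hits are not shown here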
Target sequence (Q9HCT0 whole entry, looked up): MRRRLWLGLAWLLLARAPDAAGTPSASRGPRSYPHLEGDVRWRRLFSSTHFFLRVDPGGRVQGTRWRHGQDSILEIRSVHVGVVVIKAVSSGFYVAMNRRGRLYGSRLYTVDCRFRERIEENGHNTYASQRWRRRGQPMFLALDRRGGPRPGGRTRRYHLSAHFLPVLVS
Vif A3G: inhibitors of Vif binding to APOBEC3G peptide, primary screen, biochemical, TR-FRET, GST-Vif 1-94, biotin-A3G peptide, dose response retest (AID 1117319). TR-FRET GST-Vif / biotin-A3G peptide binding; higher % means a stronger effect; test concentration not given here; strong numbers were not always called active. inhibition, %; hits with a dose series show IC50 in µM. 260,000 compounds, 0.57% hits;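 active = above the screen mean plus three standard deviations and confirmed in dose response; inconclusive = results disagree or hit not tested in dose response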;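 also: Vif residues 1-94 fused to GST binding biotinylated APOBEC3G peptide 110-148; 0% = full assay without inhibitor and 100% = GST in place of GST-Vif; retest series ran down from 100 µM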
MLL AF4-AF9 inh: MLL-AF4/AF9 protein interaction inhibition; P42568; AlphaScreen, biotin-AF4 peptide binding to FLAG-AF9; inhibition, % at 10 µM; 350,000 compounds, 0.47% hits; AID 651704;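 active = every replicate reaching a set inhibition limit, whatever the replicate mean, cut at about 25% in these data; inconclusive = mean inhibition reaches that limit but some replicates miss it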;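 also: 0% = plate neutral control median and 100% = total signal loss; the record names both 10 and 1 µM as test concentration; the first replicate is given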
Target sequence (P42568 whole entry, looked up): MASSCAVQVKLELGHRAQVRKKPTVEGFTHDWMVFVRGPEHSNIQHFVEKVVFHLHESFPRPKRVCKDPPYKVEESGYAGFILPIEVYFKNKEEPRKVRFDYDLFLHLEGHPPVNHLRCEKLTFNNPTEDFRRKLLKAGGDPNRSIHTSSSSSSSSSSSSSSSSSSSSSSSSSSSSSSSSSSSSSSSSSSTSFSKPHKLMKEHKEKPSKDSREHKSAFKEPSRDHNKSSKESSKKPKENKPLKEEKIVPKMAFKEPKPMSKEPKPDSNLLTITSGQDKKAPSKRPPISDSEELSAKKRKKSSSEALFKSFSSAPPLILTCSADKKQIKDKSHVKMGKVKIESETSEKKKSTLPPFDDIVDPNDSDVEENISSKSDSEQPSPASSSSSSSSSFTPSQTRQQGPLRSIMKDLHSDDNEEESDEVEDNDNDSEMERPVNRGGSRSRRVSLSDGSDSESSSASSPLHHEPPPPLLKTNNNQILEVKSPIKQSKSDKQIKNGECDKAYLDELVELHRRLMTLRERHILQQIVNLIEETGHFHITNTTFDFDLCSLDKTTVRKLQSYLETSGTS
Ecoli growth: E. coli growth inhibition; Escherichia coli growth, OD600, 23 h; active compounds read low; AID 1053175; OD600 absorbance (concentration not given with the values); 330,000 compounds, 0.21% hits;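 active = OD600 absorbance below the run mean of sample wells minus 3.6 SD, in any replicate, cut at about 0.56 in these data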;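 also: stock transfer was 300 nL into about 60 µL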
ALR H2O2 inh: human ALR oxidase inhibition via reduced H2O2. P55789. purified ALR, DTT oxidation, H2O2 HRP-luminol luminescence. inhibition, % (no concentration beside the values). 290,000 compounds, 3.8% hits;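 active = mean and each replicate at 75% or more; inconclusive = only one of the two met; inactive = neither met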;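 also: stock transfer was 7.5 nL into about 7.5 µL; 0% = neutral wells and 100% = wells with inactivated enzyme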
Target sequence (P55789 whole entry, looked up): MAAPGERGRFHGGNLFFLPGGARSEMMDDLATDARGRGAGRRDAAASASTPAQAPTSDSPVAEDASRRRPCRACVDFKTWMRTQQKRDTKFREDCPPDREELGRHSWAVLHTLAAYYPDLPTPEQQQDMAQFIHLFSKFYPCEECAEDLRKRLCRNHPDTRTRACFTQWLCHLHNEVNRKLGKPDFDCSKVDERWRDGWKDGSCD
HNF4A DNA FP: change in binding of human HNF4 alpha to DNA. 360,000 compounds, 0.3% hits. activity change, % at 10 µM. P41235. HNF4a-FITC DNA binding, fluorescence polarization, 1 h. AID 1224865; in the data active = activity change above about 30%, passing the limit was not always enough;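 also: controls were the assay level and a saturating level of protein; the project sought stronger binding though the title names inhibitors; some compounds called inactive have numbers as strong as hits; positive values seem to mean higher polarization but the record does not say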
rRNA inh HTS OD600: also measured in rRNA inh HTS; calls as there; OD600 change, %; measured here: OD600 growth;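 optical density of the mix in the first replicate; 0 = DMSO median and -100 = no signal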
rRNA inh HTS RFP: also measured in rRNA inh HTS; calls as there; RFP signal change, %; measured here: RFP humanized mutant strains;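 first replicate; 0 = DMSO median and -100 = no signal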
* hit, by the source's call; i = inactive; ? = inconclusive; · = no result given.

SMILES	rRNA inh HTS	rRNA inh HTS OD600	rRNA inh HTS RFP	FGF22 binding	Vif A3G	MLL AF4-AF9 inh	Ecoli growth	ALR H2O2 inh	HNF4A DNA FP
CC1=C(C)C(=O)OC(C(C)C2CCC3C4CC=C5CC(OC6OC(COC7OC(CO)C(O)C(O)C7O)C(O)C(O)C6O)CC(O)C5(C)C4CCC23C)C1 (stereo not drawn)	·	·	·	i	7.2%	-1.1	0.721	-2.7	3.4
CSCCC(NC(=O)c1ccccc1Br)C(=O)N1CCCCCCC1 (stereo not drawn)	6.5	0.8	-2.0	i	-2.7%	9.5	0.647	0.2	4.5
ClCc1nnc(-c2cc3c(s2)CCCC3)o1	-2.7	0.8	-0.5	i	-0.6%	-3.5	0.715	·	0.6
C[C@@H]1CN([C@@H](C)CO)S(=O)(=O)c2ccc(C3=CCCCC3)cc2O[C@H]1CN(C)S(C)(=O)=O	-4.7	-17.7	-5.3	i	·	4.4	·	·	·
O=C(CCC1CCCN(C(=O)Cc2cccc(F)c2)C1)N1CCN(c2ccccn2)CC1 (stereo not drawn)	-6.4	3.4	-4.9	i	6.4%	-20.5	0.681	-0.2	1.0
CN(CC(=O)NC1CCCCCC1)S(=O)(=O)c1cnc[nH]1	14.1	11.4	-1.8	i	1.7%	-1.0	0.678	·	-4.5
COc1cc(CCC(=O)OCC(=O)Nc2ccc3c(c2)OCO3)cc(OC)c1OC	-1.6	-0.4	0.5	i	·	1.0	0.677	-2.8	3.7
CC(=O)c1cccc(NS(=O)(=O)c2cc3c(cc2C)NC(=O)CO3)c1	-0.7	0.2	-1.9	i	4.1%	-0.4	0.672	-9.7	-0.3
CN(C)CCCNC(=O)C[C@@H]1C=C[C@@H](NS(=O)(=O)c2ccccc2)[C@H](CO)O1	2.1	-3.7	2.2	i	·	2.4	·	·	·
Nc1nc(N)nc(-c2cc(C(F)(F)F)ccc2Cl)n1	5.1	14.7	-1.8	i	·	-1.3	0.645	·	-4.1
CCOc1ccc(NC(=O)N[C@@H](CCSC)C(=O)OC)cc1	5.3	-3.9	0.2	i	-2.4%	-13.4	0.644	-1.4	-4.5
CC1(C)CC(NS(=O)(=O)c2ccc(F)cc2)CC(C)(C)N1	17.6	11.6	5.5	i	-2.0%	-4.3	·	-1.1	-1.3
C=C(C)Cn1c(CCNC(=O)CCC)nc2ccccc21	·	·	·	·	?	·	0.709	-6.3	1.1
OC[C@@H]1[C@H](c2ccc(-c3ccccc3)cc2)[C@@H]2CN(Cc3ccccn3)CCCCN12	1.2	0.7	4.8	i	·	2.6	·	·	·
CCNC(=O)C[C@@H]1CC[C@@H]2[C@H](COC[C@H](O)CN2Cc2ccc(Cl)c(Cl)c2)O1	-7.5	-5.4	-6.1	i	·	0.0	·	·	·
Cc1cc(Br)ccc1SCC(=O)OCC(=O)NC1CCCC1	-3.1	-1.1	-4.2	i	5.5%	-3.3	0.719	·	0.7
Cc1cc(C)nc(/N=C(\N)N2CCCCCC2)n1	4.5	19.3	-3.3	·	·	-1.4	·	·	2.9
COc1ccc(-c2cc(C(F)(F)F)n3nc(C(=O)N4CCN5CCCC5C4)cc3n2)cc1OC (stereo not drawn)	-8.7	-4.8	-1.3	i	·	0.2	0.677	-12.9	2.3
CCN(CC(=O)Nc1ccc(OC)cc1)C(=O)Cc1cccs1	1.6	-1.1	-1.9	i	13.2%	1.4	0.657	-22.7	1.8
CCN1CCN(c2ccc(S(=O)(=O)N3CCCCC3)cc2NC(=O)c2sccc2C)CC1	-5.8	1.0	-0.1	i	2.5%	1.5	0.687	-1.0	5.1
O=C(CN1C(=O)NC2(CCOc3ccccc32)C1=O)NCC(F)(F)F (stereo not drawn)	2.2	11.9	-0.3	i	·	-1.2	0.638	0.1	2.5
COc1ccc(S(=O)(=O)Nc2ccc3c(c2)C(=O)N([C@H](C)CO)C[C@H](C)[C@@H](CN(C)Cc2ccc(-c4ccccc4)cc2)O3)cc1	1.4	5.7	-1.0	i	·	0.5	·	·	·
CN(C)CC#Cc1ccc([C@@H]2[C@H]3CN(C(=O)NC4CCCC4)CCCCN3[C@H]2CO)cc1	6.6	13.9	1.1	i	·	-2.1	·	·	·
CO[C@@H]1CN(C)C(=O)c2cc(NS(=O)(=O)c3cn(C)cn3)ccc2OC[C@H](C)NC[C@H]1C	1.9	21.8	-0.5	i	·	-2.8	·	·	·
C[C@@H]1CN([C@@H](C)CO)S(=O)(=O)c2ccc(C#CCN(C)C)cc2O[C@@H]1CN(C)Cc1cccnc1	4.8	9.9	-1.5	i	·	-0.8	·	·	·
O=C(NCc1cccc(Cl)c1)c1ccc(-n2ccnc2)c2ccoc12	-14.2	-26.9	-6.9	i	·	-1.4	·	·	-6.1
CCN(CC(=O)NCc1cccs1)C(=O)CCCOc1ccccc1	1.4	-3.0	-1.0	i	-3.1%	-3.3	0.687	-3.1	2.0
O=C1CCCCC1C(=O)c1ccccc1 (stereo not drawn)	-8.2	9.7	7.2	i	-9.5%	-4.4	0.639	-7.1	·
O=c1oc2ccc3ccccc3c2c2c1SC(C(F)(F)F)C2 (stereo not drawn)	·	·	·	·	-2.2%	·	·	-3.3	-0.6
Cc1cc(C)cc(OCC(=O)OCC(=O)NC2CCCC2)c1	6.3	5.0	-0.7	i	7.1%	-3.0	0.73	3.6	-1.6
C/C(=C\c1ccccc1)C(=O)n1nnc2ccccc21	-4.2	-1.1	-1.0	i	0.6%	2.0	0.698	57.3	-1.5
O=C(Cc1ccccc1[N+](=O)[O-])NCc1ccncc1	12.9	3.0	-0.6	·	-1.6%	-12.3	0.724	1.2	-0.7
O=C(Nc1ccc2c(c1)OCO2)c1ccc(Br)o1	-12.2	-19.6	-3.1	i	7.4%	-91.6	0.632	-5.9	4.5
NC(=O)c1c(NC(=O)Cn2nc(C(=O)O)c3ccccc3c2=O)sc2c1CCCC2	5.0	-6.0	-0.7	i	21.5%	-1.2	0.679	·	3.3
Cc1cc2c(N=O)c(NO)ccc2[nH]1	·	·	·	·	?	·	0.62	78.9*	1.2
COC(=O)c1ccccc1NC(=O)CNc1cc(Cl)ccc1N1CCOCC1	·	·	·	·	8.1%	·	0.693	5.2	4.6
CCOC(=O)c1c(Nc2ccc(Cl)cc2)sc(/C=C2\C=Nc3ccccc32)c1O	15.2	15.2	3.7	i	6.7%	4.0	·	3.6	44.6*
CC1(C)Cc2c(C#N)c(N3CCN(C(=O)c4ccco4)CC3)nc(-c3ccco3)c2CS1	·	·	·	·	?	·	0.684	5.7	1.9
O=C(Nc1ccc(CN2CCCCC2)cc1)c1cc(Br)ccc1Cl	4.4	-4.6	-0.1	i	27.6%	3.3	0.677	-5.6	0.6
CC(=O)c1cccc(OCc2cc(C(=O)N(C)CCC3CCOCC3)no2)c1	-0.7	-6.9	-3.4	i	·	0.4	0.72	17.0	3.9
CC1(C(=O)NCc2ccncc2)Cc2c(-c3cccc(C(F)(F)F)c3)ccnc2O1 (stereo not drawn)	0.5	-51.0	-5.6	i	·	-0.2	·	·	-8.4
O=C(COc1ccccc1)NC1CCCN(Cc2ccccc2F)C1 (stereo not drawn)	1.5	0.5	-2.4	i	-3.0%	3.7	0.63	-18.7	-1.6
Cc1cc(C(F)(F)F)nn1CC(=O)NNC(=S)Nc1ccc(F)cc1	·	·	·	·	-1.4%	·	0.665	48.9	-1.5
CC(C)(C)C(C(=O)NCc1ccccc1)N1CCN(C(=O)C2CCCO2)CC1 (stereo not drawn)	5.2	5.1	0.9	i	·	·	·	·	-8.4
CCOC(=O)c1nc(NCc2cccnc2)c2ccccc2n1	·	·	·	·	4.3%	·	0.658	3.2	-2.5
O=C(C[C@H]1C=C[C@@H](NS(=O)(=O)c2ccccc2)[C@H](CO)O1)N1CCc2ccccc2C1	-1.0	7.2	1.3	i	·	-4.5	·	·	·
CCc1cnc(N2[C@H](C#N)[C@@H](c3ccc(C4=CCCCC4)cc3)[C@H]2CO)s1	-3.2	-14.8	-6.4	i	·	2.9	·	·	·
Cc1cc(NS(=O)(=O)c2ccc(NC(=O)c3cnc4sccn4c3=O)cc2)nc(C)n1	7.5	8.9	1.4	i	8.2%	0.2	0.747	-14.7	-2.7
O=C1c2ccccc2C(Nc2ccccc2F)N1c1cccnc1 (stereo not drawn)	0.6	0.6	-2.1	i	16.1%	-2.1	0.749	-8.0	3.0
N#CC1(Cc2ccccc2Cl)c2ccccc2C=CN1C(=O)c1ccccc1 (stereo not drawn)	·	·	·	·	-11.0%	·	0.744	-1.7	-2.3
CN(NC(=O)c1ccccc1)c1nc2ccccc2nc1C(F)(F)F	·	·	·	·	19.2%	·	0.777	-22.4	1.9
Cc1cc(C)c2nc(NNC(=O)c3ccc(S(=O)(=O)N4CC(C)CC(C)C4)cc3)sc2c1 (stereo not drawn)	·	·	·	i	18.8%	13.8	0.742	-1.5	1.7
CCCOc1ccc(C(=O)Nc2ccc(S(=O)(=O)N3CCN(C)CC3)cc2)cc1	-0.4	9.2	-8.0	i	·	-2.9	0.643	-8.2	2.0
CCN1CCN(c2oc(-c3ccccc3C)nc2S(=O)(=O)c2ccccc2)CC1	-5.6	-10.2	1.9	i	-7.2%	10.8	0.662	·	-2.0
CN1[C@H](C(=O)N2CCOCC2)[C@@H](CO)[C@@H]2Cn3c(ccc(/C=C/c4ccccc4)c3=O)[C@@H]21	0.6	3.2	-1.9	i	·	0.0	·	·	·
O=C(Nc1cccc(-c2cnc3ccccc3n2)c1)C1CC(=O)N(c2ccccc2)C1 (stereo not drawn)	2.1	11.4	-1.3	i	-6.3%	-7.3	0.693	11.3	-0.7
O=C(Cc1ccccc1)Nc1ccc(F)cc1	5.8	-9.7	0.5	·	·	0.1	0.67	2.5	-3.8
COc1cc2oc(=O)cc(-c3cccc(-c4cccc(C)c4)c3)c2c(OC)c1OC	4.8	7.2	-0.3	i	-10.3%	-1.9	0.758	·	2.1
CC(C)NC(=O)N(C)C[C@@H]1Oc2c(NC(=O)Nc3ccc(F)cc3)cccc2C(=O)N([C@@H](C)CO)C[C@H]1C	0.2	-4.4	0.2	i	·	-4.1	·	·	·
CCOC(=O)C1CCCN(S(=O)(=O)c2ccc(Br)c(OC)c2)C1 (stereo not drawn)	·	·	·	·	10.6%	·	0.674	-2.4	0.9
Next section:
SMILES	rRNA inh HTS	rRNA inh HTS OD600	rRNA inh HTS RFP	FGF22 binding	Vif A3G	MLL AF4-AF9 inh	Ecoli growth	ALR H2O2 inh	HNF4A DNA FP
Fc1ccc(COc2cccc3cccnc23)cc1	-14.5	-7.9	-3.1	i	-6.2%	-2.1	0.701	-1.3	-1.5
N#Cc1c(-c2ccccc2)nc(SCC(=O)Nc2nnc(C(F)(F)F)s2)[nH]c1=O	-8.1	-20.7	-0.4	·	-49.5%	-1.2	0.72	15.2	4.2
O=C(O)CCCCN1C(=O)/C(=C\c2ccc(OCc3ccccc3)c(OCc3ccccc3)c2)SC1=S	6.4	-15.3	6.5	i	·	4.1	0.686	-7.8	-30.5
COc1ccc(CNC(=O)Nc2ccc([N+](=O)[O-])cc2)cc1	0.2	-8.4	9.5	i	·	-4.2	0.608	-10.4	-0.3
CCCCN1C(N)=NC[C@@H]1Cc1ccc(O)cc1	16.6	5.1	-7.8	i	2.7%	-1.1	·	55.7	2.9
CCn1nc(C)c(C(=O)Nc2cc(Oc3cc(C)cc(C)c3)cc([N+](=O)[O-])c2)c1C	·	·	·	·	11.2%	·	0.639	-7.5	-0.4

The list is partial, so the mix of outcomes need not match the whole.
